TRPV1 PAM = enhances activation of the human vanilloid receptor TRPV1; potentiation, % at 8.33 µM; TRPV1-expressing cells, Fluo-8 calcium influx, capsaicin EC20 potentiation; host cell line not named in the record; control for the full effect not named in the record; 320,000 compounds, 0.02% hits; Q8NER1; active means potentiation above 80%; inconclusive means 30% to 80%; inactive means below 30%; further: 0% is about no effect
Target sequence (Q8NER1 whole entry, looked up): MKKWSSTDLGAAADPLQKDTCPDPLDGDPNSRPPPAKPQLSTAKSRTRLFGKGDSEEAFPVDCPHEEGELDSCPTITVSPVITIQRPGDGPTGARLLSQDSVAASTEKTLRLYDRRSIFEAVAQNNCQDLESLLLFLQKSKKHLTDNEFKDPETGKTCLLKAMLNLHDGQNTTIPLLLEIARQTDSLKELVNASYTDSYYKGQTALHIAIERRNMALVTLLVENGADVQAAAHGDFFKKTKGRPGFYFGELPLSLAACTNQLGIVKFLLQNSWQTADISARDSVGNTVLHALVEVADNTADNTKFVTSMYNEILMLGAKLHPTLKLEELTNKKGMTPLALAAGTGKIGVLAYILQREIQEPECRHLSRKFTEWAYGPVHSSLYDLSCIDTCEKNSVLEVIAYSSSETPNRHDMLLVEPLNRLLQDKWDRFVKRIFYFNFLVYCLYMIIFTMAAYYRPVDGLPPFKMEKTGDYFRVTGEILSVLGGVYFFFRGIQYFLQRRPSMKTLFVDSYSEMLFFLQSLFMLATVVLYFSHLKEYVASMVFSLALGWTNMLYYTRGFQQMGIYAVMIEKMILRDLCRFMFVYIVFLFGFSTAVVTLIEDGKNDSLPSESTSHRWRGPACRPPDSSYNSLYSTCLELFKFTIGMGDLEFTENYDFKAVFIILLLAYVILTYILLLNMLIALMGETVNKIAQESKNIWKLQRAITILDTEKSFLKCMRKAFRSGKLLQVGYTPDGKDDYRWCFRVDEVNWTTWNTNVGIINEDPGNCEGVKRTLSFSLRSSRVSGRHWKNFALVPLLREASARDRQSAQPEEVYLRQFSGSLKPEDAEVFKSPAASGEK
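Cells expressing TRPV1 were dye-loaded with Fluo-8 and read kinetically: 10 s baseline, 3 min after compound (agonist portion), then 2 min after EC20 capsaicin (allosteric enhancer portion). Calcium-bound dye fluorescence at 480/520 nm.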
D2 potentiator = potentiates the human D2 dopamine receptor allosterically; P14416; DiscoveRx D2 beta-arrestin cells, luminescence, 90 min; 100% = 57 uM dopamine signal; potentiation, % (test concentration not listed); 360,000 compounds, 0.23% hits; active = potentiation of 50% or more; inconclusive = 30% to 50%; inactive = 30% or less;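 further: compound concentration not given in the record; tested on top of an EC20 dose of dopamine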
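PathHunter beta-arrestin assay in DiscoveRx D2 cells. Compounds were added with an EC20 of dopamine (50 nM final) for 90 min at 37 deg C. Luminescence was read 1 h after detection reagent, with 57 uM dopamine as the EC100 control.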
TRPML1 agonist = activates the human TRPML1 channel. activation, % (test concentration not listed). TRPML1-expressing cells, Ca2+ dye fluorescence, FDSS; host cell line not named in the record; reference of the full effect not given here. 410,000 compounds, 0.12% hits. Q9GZU1; in the data active = activation above about 50%; inconclusive = about 30% to 50%; inactive = below about 30%; further: 0% is about no effect; the text of the record puts the active cut at 80%
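Cells: TRPML1-DL, 1X Tet inducer, ~16 h at 37 degrees C/5% CO2. Dye: ABD Ca8 no-wash + quencher, 45-90 min RT. Read: 10 s baseline, compound add, 110 s agonist phase; 54-4 EC80 (4uM final), 110 s antagonist phase.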
TRPML1 inh = blocks the human TRPML1 channel; TRPML1-inducible cells, Ca2+ dye fluorescence, FDSS; hits give low values; inhibition of EC80 agonist-evoked calcium signal; AID 624415; activity change, negative = inhibition, % (test concentration not listed); Q9GZU1; 390,000 compounds, 0.02% hits; in the data active means activity change below about -50%; inconclusive means about -30% to -50%; inactive means above about -30%;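 further: stimulus is agonist 54-4 at its EC80 concentration; on the % scale 0 is the no-effect control and ±100 the full control effect; compound concentration not given in the record; the text of the record puts the active cut at -80%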
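TRPML1-DL cells, Tet-induced overnight (~16 h, 37 °C) at 1,500 cells/well, were loaded with Ca8 no-wash dye plus quencher for 45-90 min at room temperature. Compounds were pinned during FDSS kinetic reading; agonist 54-4 at EC80 (4 uM final) then added.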
Six1-Eya2 blk = inhibitors of human Six1/Eya2 interaction; Q15475+O00167; AlphaScreen GST-Six1/His-Eya2 binding, biochemical; hits give low values; control for the full effect not named in the record; activity change, % (no concentration beside the values); 360,000 compounds, 0.56% hits; in the data active = activity change below about -65%; inconclusive = about -30% to -65%; inactive = above about -30%; further: on the % scale 0 is the no-effect control and ±100 the full control effect
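AlphaScreen with GST-Six1 and His-Eya2 (5X mix: 250 nM and 500 nM), glutathione donor and nickel acceptor beads; buffer 50 mM Tris pH 8.0, 300 mM NaCl, 1 mM TCEP; 1 h at 37 C in the dark.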
CtBP-E1A inh = blocks the CtBP interaction with E1A; AlphaScreen GST-E1A/His-CtBP binding, 1536-well; hits give low values; control for the full effect not named in the record; activity change, % (no concentration beside the values); 340,000 compounds, 0.49% hits; AID 651724; in the data active means activity change below about -65%; inconclusive means about -30% to -65%; inactive means above about -30%; further: on the % scale 0 is the no-effect control and ±100 the full control effect
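AlphaScreen with 125 nM GST-E1A and 125 nM His-CtBP (5X stocks) in Tris pH 8.0, 300 mM NaCl, BSA, Tween 20, TCEP. Compounds preincubated 2 h at 37 deg C, then glutathione donor/nickel acceptor beads added for 1 h at 37 deg C in dark.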
Starred values were filed as active, the others as inactive; ? = inconclusive; nt = not tested or not shown; & = joins results of further samples. Rows are unselected; any-hit rate near 0.95%.

SMILES,TRPV1 PAM,D2 potentiator,TRPML1 agonist,TRPML1 inh,Six1-Eya2 blk,CtBP-E1A inh
O=C(CSc1nnc(-c2ccc(F)cc2)o1)N1CCCC1,0.5,0.5,0.8,8.7,0.5,3.6
Cc1ccc(C(=O)OCC(=O)Nc2cccc(S(=O)(=O)N3CCCCC3)c2)o1,-10.8,-0.5,3.0,0.8,2.2,22.9
COc1cc(/C=N\NC(=O)c2ccc(C)nc2)ccc1OC(=O)c1cccc(F)c1,8.2,-5.4,-0.2,2.9,-0.5,-3.2
Cc1ccc(NC(=O)c2ccc(Cl)c(S(=O)(=O)N3CCCC3)c2)nc1,-8.6,-13.6,-0.7,17.3,-10.0,-6.7
COc1ccc(CCNC(=O)c2ccc(CS(=O)(=O)c3ccc(Cl)cc3)o2)cc1OC,-20.0,-1.4,0.0,-4.5,0.0,2.0
COc1ccccc1CNC(=O)COC(=O)c1ncc(Cl)c(Cl)c1Cl,-2.2,-5.1,0.0,11.6,8.1,-2.9
CCc1ccc(-c2cc(C)no2)cc1S(=O)(=O)N1CCN(c2ccccc2F)CC1,0.6,-8.6,0.2,72.9,-3.9,-15.6
CCCCOc1ccc(/C=C2/Sc3ccccc3C2=O)cc1,9.2,16.8,0.4,-9.2,0.7,0.8
O=C(C#Cc1ccccc1)c1ccc([N+](=O)[O-])cc1,7.6,-1.4,6.7,-3.9,-1.4,-3.0
COCc1cc(=O)n2[nH]c(-c3ccsc3-n3c(C)ccc3C)cc2n1,5.0,2.6,0.0,-6.5,?,-4.3
CCCS(=O)(=O)NC(=O)C1(C)CCN(C(=O)c2c(-c3ccccc3)noc2C)C1 (configuration not stated),nt,-5.1,-0.4,nt,14.2,-19.5
C[C@H]1COC(=O)[C@H](CC(=O)OC(C)(C)C)C/C=C\C[C@@H](CC(=O)N[C@@H](CO)Cc2ccccc2)C(=O)N1,nt,3.6,-0.1,-0.1,2.6,nt
O=C(CN(C(=O)CSc1nc2ccccc2o1)c1cccc(F)c1)NC1CCCCC1,nt,0.1,0.6,-9.8,-2.0,10.6
COc1c(Cl)cc(Cl)cc1/C=N/n1cnnc1,3.7,-12.8,0.4,2.5,4.4,5.8
COc1ccc(NC(=O)CCNC(C)=O)cc1NS(=O)(=O)c1ccc(F)cc1,10.5,3.3,-0.5,-5.0,-1.3,3.6
Cn1cc(C(=O)N2CCN(C(=O)c3ccco3)CC2)c2c3ccccc3n(C)c2c1=O,1.0,-9.4,-0.2,-6.5,-3.6,-20.0
COc1ccc(C2CC(c3ccccc3)=NN2C(=O)CCC(=O)O)cc1 (configuration not stated),-2.0,-3.7,-0.3,49.5,0.7,0.3
CCOc1ccc(C(=O)NCC(=O)N2CCC(C)CC2)cc1OCC,-5.9,-5.1,-0.5,-7.9,10.9,10.4
Cc1ccc(S(=O)(=O)N(CC(=O)N/N=C/c2cccc(Cl)c2)c2cccc3cccnc23)cc1,15.0,3.6,1.0,-7.3,6.1,8.3
Cc1ccccc1Cn1ccc(NC(=O)c2nn3cccnc3c2Cl)n1,-7.5,-0.2,-0.8,22.7,-4.2,-5.1
O=C(Nc1ccc2c(c1)OCO2)c1c(F)c(F)c(F)c(F)c1F,-4.2,-5.8,2.4,-2.4,9.2,8.3
CCN1CCN(S(=O)(=O)c2ccc(Cl)c(C(=O)NCCOc3ccc(C)cc3)c2)CC1,-6.9,7.9,-0.6,3.8,4.9,-2.0
COCCn1c(SCC(=O)c2ccc(Cl)cc2)nnc1C(C)C,-3.8,-21.8,2.4,-11.8,3.5,-0.5
CC(C)Oc1ccc(N2CC(C(=O)NC3=NCCS3)CC2=O)cc1 (configuration not stated),-12.3,-5.0,0.1,32.3,-1.5,-5.6

One compound at a time, as listed above. Values in the order: TRPV1 PAM, D2 potentiator, TRPML1 agonist, TRPML1 inh, Six1-Eya2 blk, CtBP-E1A inh
CCN1CCN(S(=O)(=O)c2ccc(Cl)c(C(=O)NCCOc3ccc(C)cc3)c2)CC1 as listed: -6.9, 7.9, -0.6, 3.8, 4.9, -2.0
COc1ccc(NC(=O)CCNC(C)=O)cc1NS(=O)(=O)c1ccc(F)cc1 as listed: 10.5, 3.3, -0.5, -5.0, -1.3, 3.6

The results go on.
SMILES,TRPV1 PAM,D2 potentiator,TRPML1 agonist,TRPML1 inh,Six1-Eya2 blk,CtBP-E1A inh
C1=CC2CC1CC2CN1CCN(c2ccccc2)CC1 (configuration not stated),11.5,?,2.7,-11.4,-9.7,-13.1
Cc1cc(C(=O)CSc2nncn2C)c(C)n1-c1ccccc1,-3.6,-0.9,-0.6,16.9,-8.9,0.2
O=S(=O)(NCc1ccccc1)c1ccc(Cl)cc1,-3.2,?,2.9,52.8,5.5,10.0
Fc1ccc(Oc2ccc3nnc(C(F)(F)F)n3n2)cc1,-3.6,5.8,0.9,-5.7,0.0,0.0
Cc1c(C(=O)NCc2ccc3c(c2)OCO3)oc2ccc(S(=O)(=O)N3CCCCC3)cc12,-19.6,-8.4,2.4,-3.4,-6.2,4.7
Cc1ccnc(NC(=O)c2ccc(S(=O)(=O)N3CCC(C)CC3)cc2)c1,-14.1,-66.8,1.1,-9.5,-5.5,4.0
CCCN(C(=O)CSCc1c(C)noc1C)c1c(N)n(Cc2ccccc2)c(=O)[nH]c1=O,16.2,0.9,0.3,1.9,6.5,1.7
COc1ccc(NC(=O)Cn2cc(S(=O)(=O)N3CCN(c4ccccc4F)CC3)c3ccccc3c2=O)cc1Cl,-0.7,nt,1.3,24.1,nt,nt
Cc1ccccc1N1CCN(S(=O)(=O)N(C)C)CC1,-4.1,-5.8,2.2,2.4,5.1,1.8
COc1ccc(OCC#CCN2CC(C)OC(C)C2)cc1 (configuration not stated),-2.9,-5.6,-0.9,3.3,6.9,-16.0
Cc1ccc(CCNC(=O)C2CCCN(S(=O)(=O)c3cccc4nsnc34)C2)cc1 (configuration not stated),18.9,-4.1,-0.5,5.4,-1.2,-0.1
O=C(COc1ccccc1)NCc1ccco1,nt,-4.4,-0.1,-4.9,-3.6,-1.8
CCOC(=O)Cn1nc(NC(=O)c2ccc3c(c2)OCO3)cc1C,-3.3,-7.8,0.0,8.8,-5.4,14.3
COc1cc(C2NC(=O)NC(C)=C2C(=O)OC2CCCC(C)C2)ccc1O (configuration not stated),-2.7,-0.8,0.8,-1.1,-18.6,?
S=C(c1ccc(N2CCCC2)c(Br)c1)N1CCCCC1,-3.9,-8.7,1.6,-11.7,?,?
CC(=O)Nc1ccc(NC(=O)C2CC(=O)N(c3cccc(C)c3C)C2)cc1 (configuration not stated),22.0,-14.6,-0.3,1.0,-5.7,-2.4
COCCCNC(=O)c1ccc(Cn2c(=O)c3ccccc3n(Cc3cc(C)ccc3C)c2=O)cc1,-3.3,-2.5,3.3,-10.3,-10.4,-10.7
CCOC(=O)c1c(C)[nH]c(C)c1C(=O)CSc1nnc(-c2ccc(OC(F)F)cc2)o1,6.1,8.1,3.2,-13.9,4.3,-4.3
Cc1nnc(N/N=C/c2ccccc2O)n1N,-8.2,-6.5,-0.2,-4.6,-78.5*,-87.3*
O=c1c(/C=N/N2CCOCC2)c(C(F)(F)F)[nH]n1-c1ccccc1,26.2,-0.9,-0.6,26.2,-1.6,nt
C/C(CC(=O)c1ccccc1)=N\NC(=O)CC#N,-3.1,-31.1,0.4,20.8,0.4,0.4
COc1ccccc1NC(=O)Cn1cnc2sc(C(=O)Nc3ccc(OC)c(OC)c3)c(C)c2c1=O,2.7,-7.1,-0.3,0.2,-4.3,4.4
CCOc1ccccc1-c1nc(-c2ccncc2)no1,-2.8,14.5,-0.5,19.7,4.7,3.5
O=C(NCc1ccc(Cl)cc1)C1CCN(S(=O)(=O)c2ccc(F)cc2)CC1,2.5,6.8,0.5&-0.2,-7.6&11.7,3.4,-25.6
CCN1CCN(c2nc3ccccc3n3cnnc23)CC1,11.4,-20.9,0.1,14.5,0.0,nt
COC(=O)/C=C/C(=O)N1CCN(c2ccccc2C)CC1,-42.1,-7.7,-0.8,23.7,4.1,24.5
CCc1nc2ccc(C(=O)NCCc3c[nH]c4ccccc34)cn2c1N(C)CCCc1ccccc1,nt,-14.4,-0.2,1.8,-10.3,-10.8
COc1c(S(=O)(=O)NCCCN2CCOCC2)ccc(Cl)c1Cl,-0.3,-8.2,-0.4,-8.3,-0.6,4.1
OCC1(CC2CCCCO2)CCN(Cc2nc3ccccc3[nH]2)CC1 (configuration not stated),3.3,3.8,1.9,20.8,4.2,nt
Cc1ccc(S(=O)(=O)CCC(=O)Nc2ccc(F)cc2)cc1,-5.9,-3.9,1.1,6.5,0.5,0.0
O=C(/C=C/c1ccc(Cl)cc1Cl)NCCN1CCOCC1,-13.0,-19.0,0.6,-21.1,-0.7,-0.8
COC(=O)C(Cc1ccccc1)NCC(=O)Nc1cccc(Cl)c1C (configuration not stated),-22.7,-4.4,-1.0,0.1,4.3,1.7
CC(=O)c1ccc2c3c(cccc13)C(=O)N(CCc1ccccc1)C2=O,-0.6,1.9,-0.5,9.0,-14.6,nt
C=CCSc1nc2sc3c(c2c(=O)n1-c1ccc(C)cc1)CCN(C)C3,-4.0,-2.4,1.2,17.7,4.1,-3.0
O=C(O)CSCC(=O)Nc1ccccc1,nt,-5.9,-0.1,-6.1,3.6,9.0
O=C(O)c1cccc(NC(=O)c2cccc(S(=O)(=O)Nc3cccc([N+](=O)[O-])c3)c2)c1,-7.1,-44.1,-0.7,-7.3,0.6,-4.1
Cc1cc2c(=O)oc(-c3ccccc3Br)nc2s1,4.7,2.2,-0.4,-3.4,-13.3,3.4
O=C(Nc1ccc(NC(=O)c2cccs2)cn1)c1ccccc1,-4.9,0.7,0.6,17.1,-6.4,nt
C/C=C/Cn1c(SC)nc2c1c(=O)[nH]c(=O)n2C,-18.5,-8.2,-0.8,-7.9,13.2,1.7
COc1cccc(-n2nnnc2SCC(=O)NC2CCCCC2)c1,7.6,-3.2,1.2,-5.6,-0.2,2.3
CC(C)CCNC(=O)NC(=O)COC(=O)/C=C/c1cnc2ccccc2n1,-2.3,-3.3,0.7,6.4,-9.4,0.0
CCOC(=O)CSC1=NC(=O)/C(=C/c2ccc(Br)cc2)S1,1.4,-6.8,0.0,11.7,0.9,-7.1
Cn1c(N)c(C(=O)CCl)c(=O)n(C)c1=O,?,-4.6,0.0,4.8,-3.4,nt
CC1CCC(NC(=O)CN2C(=O)NC(C)(C)C2=O)CC1 (configuration not stated),5.3,0.3,1.4,-26.5,0.8,2.4
CC(C)NC(=O)C1CCN(C2CCN(Cc3ccc4cccc(F)c4n3)CC2)CC1,0.2,-13.2,0.1,-27.8,2.0,nt
O=C(Nc1ccccc1)C1=C[C@H](c2ccc(C(F)(F)F)cc2)C[C@H](OCCCCO)O1,nt,-8.7,-0.6,-4.8,-6.8,0.1
Clc1ccc(C[n+]2cc(-c3ccc(Cl)cc3)n3c2CCC3)cc1,-3.1,-19.4,-0.6,9.1,-18.1,-1.3
